Screening data (PubChem BioAssay)
Rango release inh – prevents RanGTP from dissociating the Rango-importin beta complex; hit rate 0.071% among 340,000; AID 540253; O95149+P62826; Potency, µM (top dose mostly 46.1 µM), for inactives: at the highest dose activity change, negative = inhibition; Biochemical FRET Rango-importin beta, RanGTP-induced dissociation; active means falling FRET ratio curve, often poorly fitted, with flat reads before Ran was added; inconclusive means other falling curves, or compound fluorescence or quenching; inactive means flat or rising ratio curve;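 also: potency is read from the fitted curve at half-maximal effect; % of control where 0% means no effect; nearly all actives have a fitted effect of over 45% in size; -100% = wells without RanGTP and RCC1; the record marks most hits as doubtful in a second field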
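Rango (0.1 uM)–importin beta (0.25 uM) complex; RanGTP-RCC1 trigger; 45 min RT; CFP/YFP FRET read.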
GLA inh pH 4.5 – alpha-galactosidase A (human) inhibition, pH 4.5 | P06280 | purified enzyme, 4-MU-alpha-Gal fluorescence, pH 4.5 | activity change, negative = inhibition, % at 105 µM | 230,000 tested, under 10 active | AID 1467; inconclusive = small, poorly fitted or top-dose-only inhibition, or a rising curve; inactive = flat fitted curve, though single readings scatter; no compound was filed as active;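 also: 0% = full activity with enzyme and -100% = basal without enzyme; dose as in the result columns while the protocol names 77 µM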
Target sequence (P06280 whole entry, looked up): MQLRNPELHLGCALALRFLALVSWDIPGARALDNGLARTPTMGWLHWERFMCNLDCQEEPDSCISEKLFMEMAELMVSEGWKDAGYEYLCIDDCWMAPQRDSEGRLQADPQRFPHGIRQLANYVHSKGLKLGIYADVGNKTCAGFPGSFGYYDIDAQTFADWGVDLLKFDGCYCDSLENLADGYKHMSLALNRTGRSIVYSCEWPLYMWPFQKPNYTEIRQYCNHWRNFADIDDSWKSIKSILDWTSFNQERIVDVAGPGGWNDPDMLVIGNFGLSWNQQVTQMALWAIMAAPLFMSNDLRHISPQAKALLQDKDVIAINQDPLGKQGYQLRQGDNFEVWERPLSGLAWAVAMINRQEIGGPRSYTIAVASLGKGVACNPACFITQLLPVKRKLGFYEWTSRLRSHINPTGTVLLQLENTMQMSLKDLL
miR-21 FLuc – miR-21 reporter, rising signal; Potency, µM (series often up to 38.3 µM), without a hit: at the top dose reporter change, positive = more light; HeLa miR-21 FLuc reporter, luciferase, 48 h; AID 2288; 340,000 tested, under 10 active; active = well fitted rising curve with a large enough effect; inconclusive = small, poorly fitted or top-dose-only effect; inactive = no such curve, though single readings can be large or run the other way;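 also: % of control where 0% means no effect; miR-21 action dims this reporter so a rising signal means less miR-21 action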
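Compounds were titrated across several concentrations (up to approximately 40 uM) and incubated 48 hours with HeLa miR-21-FLuc reporter cells (miR-21 target sequence downstream of FLuc, endogenous miR-21). Readout was firefly luciferase luminescence after lytic detection reagent.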
Rango complex inh – inhibitors of Rango-importin beta complex formation. Rango CFP/YFP FRET sensor + importin beta, 45 min. Potency, µM (series often up to 92.2 µM), without a hit: at the highest dose inhibition of complex formation. hit rate 0.031% among 340,000. AID 540263; active = rising FRET ratio curve, often small or poorly fitted; inconclusive = mostly compound fluorescence or quenching in the first reads; inactive = flat curves in all reads;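 also: potency is read from the fitted curve at half-maximal effect; 0% = DMSO wells and 100% = buffer wells lacking importin beta; nearly all actives have a fitted effect of over 15% in size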
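FRET biosensor (snurportin 1 IBB flanked by EYFP and cerulean), 50 nM, with compound 5 min, then 0.125 microM importin beta in PBS, 1 mM DTT, 0.02% Tween-20, 0.1% BSA. CFP/YFP ratio read after 45 min at room temperature; pre-read flags interference.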
Numbers without * were called inactive; ? = inconclusive; · = no result given.

Start of the data: the first 2 entries, ahead of the listing:
SMILES	Rango release inh	GLA inh pH 4.5	miR-21 FLuc	Rango complex inh
COC(=O)[C@@H](Cc1c[nH]c2ccccc12)NC(=O)c1ccc2c(c1)OCO2	1%	·	-7%	3.2%
COc1ccc(/C=N/NC(=O)c2ccncc2)cc1CN1CCOCC1	0%	3	-2%	2.8%

The list itself, repeating the preview:
SMILES	Rango release inh	GLA inh pH 4.5	miR-21 FLuc	Rango complex inh
COC(=O)[C@@H](Cc1c[nH]c2ccccc12)NC(=O)c1ccc2c(c1)OCO2	1%	·	-7%	3.2%
COc1ccc(/C=N/NC(=O)c2ccncc2)cc1CN1CCOCC1	0%	3	-2%	2.8%
Cc1cc(C)n(CC(O)Cn2c3ccc(Br)cc3c3cc(Br)ccc32)c(=O)n1 (stereo unspecified)	1%	-11	22%	2.3%
O=C(c1ccc(Cl)c(Cl)c1)c1cc(-c2ccccn2)c(N2CCOCC2)s1	?	-21	-2%	?
Cc1cc(NCCN2CCOCC2)n2ncc(-c3ccccc3)c2n1	6%	3	-26%	4.0%
Cc1ccnc(NC(=O)Cc2ccc(-c3ccccc3)cc2)c1	11%	·	1%	6.1%
CC(C)c1ccccc1N=C1SCCCN1C(=O)c1cccc(N2C(=O)CCC2=O)c1	-12%	·	·	-2.1%
C=CCc1cccc(Cl)c1OCCON1C(=O)CCC1=O	1%	10	-3%	1.3%
COc1cccc(NC(=S)NNC(=O)Cn2nc(C(F)F)cc2C(F)F)c1	2%	-8	-3%	-2.9%
CCn1nnnc1NCc1ccc(N2CCCC2)cc1	0%	6	-12%	-0.7%
Cc1ccccc1CSc1nnc(-c2cnccn2)n1C	-6%	-1	-36%	?
COc1ccccc1-c1nnc(SCC(=O)NC2CCS(=O)(=O)C2)n1CCc1ccccc1 (stereo unspecified)	-24%	9	-3%	-3.1%
CCC(C)NC(=O)C(Sc1ccccc1)c1ccccc1 (stereo unspecified)	9%	-23	1%	-0.4%
O=C(Nc1cc([N+](=O)[O-])ccc1O)NC1CCS(=O)(=O)C1 (stereo unspecified)	1%	·	·	?
O=C(CS(=O)Cc1ccccc1Cl)Nc1ccccc1Cl (stereo unspecified)	9%	0	-5%	-3.1%
CCOC(=O)c1ccccc1NC(=O)CCNC(=O)Cn1cnc2ccccc2c1=O	-1%	3	0%	-1.4%
O=C(CC1C(=O)CCCC1=O)c1ccccc1	-2%	9	-2%	-1.7%
CC(C)(C)C1=C[C@@H](CO)C[C@@H](CO)C1	4%	-7	-8%	4.0%
N#Cc1nc(-c2ccco2)oc1NCc1ccccc1Cl	?	0	-18%	-1.8%
O=C(O)c1ccc(Cl)c(S(=O)(=O)NCc2cccnc2)c1	-5%	2	2%	0.7%
CC(=O)c1cccc(NCC(=O)c2ccc(C)c([N+](=O)[O-])c2)c1	33%	·	-7%	6.9%
CC(C)C(NC(=O)C12CC3CC(CC(C3)C1)C2)C(=O)N/N=C/C1=C(N2CCOCC2)C(=C\c2cccc([N+](=O)[O-])c2)/CC1 (stereo unspecified)	-15%	?	-3%	-2.2%
Cc1cc(OCC(=O)NCCCn2ccnc2)c2c(C)c(C)c(=O)oc2c1	1%	·	-1%	-2.3%
Cc1ccc(S(=O)(=O)NC(C)(C)CSc2nncn2N)cc1	-4%	-3	3%	-2.4%
CCOC(=O)c1ccc(N2C(=O)CC(SCC(=O)Nc3ccc(S(N)(=O)=O)cc3)C2=O)cc1 (stereo unspecified)	-5%	-23	-1%	-4.2%
(continued)
SMILES	Rango release inh	GLA inh pH 4.5	miR-21 FLuc	Rango complex inh
Cc1cccc(S(=O)(=O)Nc2nc3ccccc3nc2OC(C)C)c1	-3%	·	0%	1.1%
Cc1ccccc1CC(=O)Nc1ccc2c(c1)CCC2	-9%	·	-16%	0.3%
Cc1ccc(C)c(NC(=O)CN(C)C(=O)c2cccc(N3C(=O)CCC3=O)c2)c1	-7%	·	·	-4.1%
Cc1cc(C)cc(OCc2nnc(SCC(=O)N3CCN(c4ccccc4)CC3)o2)c1	4%	2	-6%	-5.0%
O=C(Cc1ccc(S(=O)(=O)N2CCOCC2)s1)NCC(=O)Nc1ccccc1Br	-12%	·	·	3.2%
O=S1(=O)CCC(NS(=O)(=O)c2ccc3ccccc3c2)C1 (stereo unspecified)	-2%	·	-4%	-1.3%
COc1cccc(C(=O)CSc2nc3ccccc3n2CC(=O)N2CCOCC2)c1	2%	-5	-12%	-0.3%
Cn1c2ccccc2c2nnc(SCC(=O)Nc3cccc(O)c3)nc21	-7%	·	-48%	4.9%
O=C(N1CCOCC1)N1c2ccccc2CC(N2CCOCC2)c2ccccc21 (stereo unspecified)	-6%	1	1%	0.5%
O=C1C=C(NC2CCCCC2)CCC1	9%	·	·	3.9%
COc1cc(C(C(=O)NCc2ccccc2)N(Cc2ccco2)C(=O)c2cnccn2)cc(OC)c1OC (stereo unspecified)	-7%	2	4%	-0.6%
CN(C(=O)c1ccc(NC(=O)Cc2ccc(NC(=O)C3CCCN(C(=O)c4ccccc4)C3)cc2)cc1)C1CCCC1 (stereo unspecified)	-4%	·	·	0.3%
CCOC(=O)C[C@H]1c2cc(F)ccc2S(=O)(=O)N1C(C)(C)C	-8%	·	·	-8.5%
O=C1N=C(N2CCOCC2)S/C1=C\c1cccnc1	-1%	-16	0%	2.9%
Cc1c(C(=O)NCc2ccccn2)oc2ccc(S(=O)(=O)N3CCC4(CC3)OCCO4)cc12	?	-2	2%	-0.6%
CC(C)NC(=O)CSc1nc(Cc2ccccc2)nc2ccccc12	1%	·	-8%	0.5%
O=C(COC(=O)c1n[nH]c2ccccc12)NCCc1ccccc1	6%	·	·	-3.0%
O=C1NCCCCC1NS(=O)(=O)c1ccc(F)c(F)c1 (stereo unspecified)	9%	-2	-5%	-1.6%
CCOC(=O)c1cc2n(n1)C(C(F)(F)F)CC(C)N2 (stereo unspecified)	16%	-6	-22%	3.2%
CCC(=O)NC(=S)Nc1ccc(S(=O)(=O)NC(C)=O)cc1	1%	-4	-5%	0.6%
CCCC(=O)NC(=S)Nc1ccc(Cl)cn1	-2%	0	-35%	4.8%
COc1ccccc1NS(=O)(=O)c1cc(NC(=O)c2ccc(NC(C)=O)cc2)ccc1N1CCOCC1	-10%	·	·	2.6%
COc1ccc(NC(=O)CNC(=O)Cn2cnc3sc(C)c(C)c3c2=O)cc1OC	-2%	·	-1%	-3.9%
Cc1cccc(C(=O)NC(=S)NCc2ccccc2)c1	1%	·	·	6.1%
COc1ccc(S(=O)(=O)N2CCOCC2)cc1NS(=O)(=O)/C=C/c1ccccc1	6%	8	0%	-0.7%
Other compounds follow.
SMILES	Rango release inh	GLA inh pH 4.5	miR-21 FLuc	Rango complex inh
CN(CC(=O)Nc1ccc(Cl)c(S(=O)(=O)N2CCOCC2)c1)C(=O)c1cccs1	6%	·	·	-1.0%
COc1ccc(F)cc1CN1CCN(CC(=O)N2CCc3ccccc32)CC1	14%	·	3%	-0.3%
COc1ccccc1NC(=S)NNC(=O)c1ccc(Cl)cc1Cl	-3%	-9	-56%	0.2%
Cc1ccc(S(=O)(=O)NC(=S)c2ccccc2)cc1	-2%	·	·	-0.9%
CCOc1ccc(NC(=O)CSc2nncc(=O)[nH]2)cc1	0%	·	14%	-0.2%
Cn1c(C(=O)OCC(=O)NCC2CCCO2)cc2sccc21 (stereo unspecified)	-2%	5	-7%	-1.0%
c1ccc(-c2noc(CSc3nc4ccccc4o3)n2)cc1	4%	-1	-19%	-2.1%
COC(=O)c1cccc(NC(=O)CSc2nnc(C)o2)c1	2%	·	-11%	0.2%
O=C(CSc1ccc2ccccc2c1)Nn1cnnc1	14%	9	-5%	-1.0%
Cc1ccc(C(=O)Nc2cc(Cl)ccc2-n2cncn2)s1	37%	·	·	0.8%
COc1cccc(OC)c1-c1nn2c(-c3cc(-c4ccccc4)n[nH]3)nnc2s1	9%	-7	21%	0.0%
COC(=O)c1c(N2C(=O)[C@H]3[C@@H](C2=O)[C@]2(C(=O)Nc4ccc(C)cc42)N2CCC[C@@H]32)sc(C)c1C	·	3	11%	·
C=CCn1c(SCc2ccc([N+](=O)[O-])cc2)nnc1C(C)NC(=O)c1ccccc1 (stereo unspecified)	13%	7	0%	-0.4%
COc1ccc(N(C(=O)c2snc(C(N)=O)c2N)C(C(=O)NCC2CCCO2)c2ccc(C)o2)cc1OC (stereo unspecified)	3%	·	-1%	-0.1%
COc1cc(C2C(C(N)=O)=C(C)Nc3nc(CCCO)nn32)cc(OC)c1OC (stereo unspecified)	-1%	-2	-4%	2.5%
CC(=O)/C=C/c1ccccc1Oc1c(F)c(F)nc(F)c1F	2%	·	20%	1.1%
COc1ccccc1-c1nnc2n1N=C(c1ccc(OC(F)F)c(OCC3CC3)c1)CS2	-7%	·	·	3.0%
O=C(Nc1cccc(S(=O)(=O)N2CCCCC2)c1)c1ccc2ncsc2c1	5%	5	-8%	-5.5%
Cc1ccc(Nc2nc(-c3ccc(C)cc3)c(CC(=O)O)s2)cc1	-11%	-1	-23%	?
CCOc1ccc(C(C)NC(=O)C2CCC2)cc1 (stereo unspecified)	-10%	20	-2%	-2.1%
O=C(NNc1ccc([N+](=O)[O-])cc1[N+](=O)[O-])C1C2CCCCC21 (stereo unspecified)	11%	-6	-12%	4.6%
CCOc1ccc(OCC)c(S(=O)(=O)n2cc(C)nc2CC)c1	-7%	-3	-1%	0.0%
Cc1ccc2c(C)c(C(=O)N(C)CCC3CCCCO3)oc2c1C (stereo unspecified)	-8%	·	-21%	-1.9%
C=CCn1c(SC2CCOC2=O)nc2scc(C3CC3)c2c1=O (stereo unspecified)	-24%	-1	-1%	?
Cn1c(C(=O)N/N=C/c2ccccc2)cc2ccccc21	14%	·	-34%	-0.3%

Compound profiles, as listed above. Order of values: Rango release inh | GLA inh pH 4.5 | miR-21 FLuc | Rango complex inh
Cn1c(C(=O)N/N=C/c2ccccc2)cc2ccccc21 across the screens: 14% | · | -34% | -0.3%
C=CCn1c(SCc2ccc([N+](=O)[O-])cc2)nnc1C(C)NC(=O)c1ccccc1 (stereo unspecified) across the screens: 13% | 7 | 0% | -0.4%
COc1ccc(F)cc1CN1CCN(CC(=O)N2CCc3ccccc32)CC1 across the screens: 14% | · | 3% | -0.3%

(further entries)
SMILES	Rango release inh	GLA inh pH 4.5	miR-21 FLuc	Rango complex inh
O=C(c1ccc(Cl)cc1)N1CCCOC1	-5%	1	-8%	2.1%
N#CCc1ccc(NC(=O)c2ccccc2C(=O)Nc2ccc(CC#N)cc2)cc1	2%	·	-3%	-1.7%
COc1ccc(-n2ncc3c(=O)n(CC(=O)N(C(C)C)C(C)C)cnc32)cc1	5%	·	-3%	-0.5%
COc1cc(C2c3sc(=O)[nH]c3SC3C(=O)N(c4ccc(C)cc4)C(=O)C32)ccc1O (stereo unspecified)	-7%	1	3%	?
CCOC(=O)C1CCN(C(=O)c2ccccc2N(C)S(=O)(=O)c2ccccc2)CC1	10%	-5	-6%	1.9%
CC(=O)Nc1ccc(CC(=O)NCCC(c2ccccc2)c2ccccc2)cc1	-1%	·	28%	-1.8%
Cc1ccc(OCc2cc(C(=O)N3CCC(c4ccccc4Cl)C3)no2)cc1C (stereo unspecified)	0%	·	-54%	-4.5%
O=C(NNC(=O)c1ccccc1-n1cccc1)c1ccc(Cl)nc1	0%	·	·	0.9%
CCCCN(C(=O)c1ccc(NC(=O)C(C)C)cc1)c1ccccc1	7%	-5	0%	-0.7%
O=C(NC(Cc1ccccc1)C(=O)O)/C(=C\c1ccco1)NC(=O)c1ccc(Br)cc1 (stereo unspecified)	-8%	8	0%	?
Cc1cc(=O)[nH]c(N=N/C(=N/Nc2ccccc2C)c2ccccc2)n1	-15%	-9	0%	-4.4%
CC(=O)Nc1cccc(NS(=O)(=O)c2cn(C)c(=O)n(C)c2=O)c1	?	·	3%	?
O=C(CSc1ccc(-c2ccc(F)cc2)nn1)NC1CCCCC1	20%	·	-4%	-1.4%
CC(C)(C)CC(C)(C)NC(=S)Nc1ccc2nc(-c3ccccn3)c(-c3ccccn3)nc2c1	?	-4	22%	?
Cc1ccc(S(=O)(=O)N(C)C[C@H]2Oc3ccc(NC(=O)C4CCCCC4)cc3C(=O)N([C@H](C)CO)C[C@H]2C)cc1	-1%	·	·	-4.1%
COc1cccc(C(=O)NC2CC(C)(C)Cc3c2cnn3-c2cccc(F)c2)c1OC (stereo unspecified)	9%	·	6%	0.2%

These rows are one share of the data; count on the stated rates, not on these rows.
